# Compound activity (PubChem)
# ClpP mod: qHTS Assay for Activators of ClpP | purified B. subtilis ClpP, FRET peptide cleavage, 20 min | Potency, µM (titrated, usually from 57.5 µM), for inactives: at the highest dose activity change, negative = active | ATP-dependent Clp protease proteolytic subunit (Bacillus subtilis (strain 168)), P80244 | 340,000 compounds, 1.9% hits; active = well fitted falling curve with a large enough effect; inconclusive = small, poorly fitted or top-dose-only effect; inactive = no such curve, though single readings can be large or run the other way; further: potency means the concentration at half of the fitted maximal effect; the source files actives as falling curves though it sought activators and does not explain the sign; nearly all actives have a fitted effect of over 65% in size; many hits overshoot -100%
# Target sequence (P80244 whole entry, looked up): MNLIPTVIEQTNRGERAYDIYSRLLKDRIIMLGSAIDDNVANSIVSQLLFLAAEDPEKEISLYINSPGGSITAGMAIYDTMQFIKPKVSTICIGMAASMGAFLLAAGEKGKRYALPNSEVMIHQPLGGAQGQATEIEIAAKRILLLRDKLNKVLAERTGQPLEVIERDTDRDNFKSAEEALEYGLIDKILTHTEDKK
#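 Purified B. subtilis ClpP, 10 microg/mL final in Tris/HCl pH8 with KCl, BSA, glycerol and Tween-20, cleaved an Abz/nitrotyrosine-quenched decapeptide. Fluorescence (ex 320, em 430) was read at 0 and 20 min at room temperature. Delta was normalized to 5.8 microM ADEP and DMSO/no-enzyme controls.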
# TRPML1 inh: human mucolipin-1 channel inhibition; Q9GZU1; TRPML1-inducible cells, Ca2+ dye fluorescence, FDSS; hits give low values; inhibition of EC80 agonist-evoked calcium signal; activity change, negative = inhibition, % (test concentration not listed); 390,000 compounds, 0.02% hits; AID 624415; in the data active means activity change below about -50%; inconclusive means about -30% to -50%; inactive means above about -30%;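 further: stimulus is agonist 54-4 at its EC80 concentration; on the % scale 0 is the no-effect control and ±100 the full control effect; compound concentration not given in the record; the text of the record puts the active cut at -80%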
# Target sequence (Q9GZU1 whole entry, looked up): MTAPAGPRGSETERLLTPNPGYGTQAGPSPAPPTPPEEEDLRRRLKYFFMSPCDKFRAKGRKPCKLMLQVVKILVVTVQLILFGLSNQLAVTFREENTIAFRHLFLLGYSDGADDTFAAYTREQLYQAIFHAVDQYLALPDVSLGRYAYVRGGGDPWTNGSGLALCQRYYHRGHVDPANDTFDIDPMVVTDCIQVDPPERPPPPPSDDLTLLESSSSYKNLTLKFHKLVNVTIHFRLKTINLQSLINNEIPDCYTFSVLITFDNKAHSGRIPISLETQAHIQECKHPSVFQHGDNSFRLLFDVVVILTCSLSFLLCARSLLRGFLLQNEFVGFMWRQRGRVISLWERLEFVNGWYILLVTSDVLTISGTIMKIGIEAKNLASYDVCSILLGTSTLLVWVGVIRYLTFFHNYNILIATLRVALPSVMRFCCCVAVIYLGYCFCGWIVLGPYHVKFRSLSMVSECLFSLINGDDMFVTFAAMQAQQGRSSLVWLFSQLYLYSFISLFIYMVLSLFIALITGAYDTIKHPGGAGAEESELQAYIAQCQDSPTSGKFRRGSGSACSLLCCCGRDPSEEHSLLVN
#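 TRPML1-DL cells, Tet-induced overnight (~16 h, 37 °C) at 1,500 cells/well, were loaded with Ca8 no-wash dye plus quencher for 45-90 min at room temperature. Compounds were pinned during FDSS kinetic reading; agonist 54-4 at EC80 (4 uM final) then added.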
# gsp antag: antagonists of gsp mutant (McCune-Albright syndrome); AID 624288; Potency, µM (series often up to 76.9 µM), inactives show at the top dose activity change, negative = inhibition, hits mostly inhibitors; gsp-mutant cells, cAMP HTRF, 30 min; control for the full effect not named in the record; 340,000 compounds, 0.4% hits; active = falling curve of any shape with a large fitted effect; inconclusive = falling curve, mostly with a smaller effect; inactive = flat or rising curve; cell line not stated here;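 further: intracellular cAMP measured with PDE inhibitor Ro 20-1724 present during compound exposure; potency means the concentration at half of the fitted maximal effect; on the % scale 0 is the no-effect control and ±100 the full control effect; nearly all actives have a fitted effect of over 65% in size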
#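 G418-selected cells were plated in DMEM/10% FBS for 16-24 h at 37C, then treated with compounds plus the PDE inhibitor […] (300 uM solution added) for 30 min at 37C. Intracellular cAMP was measured by HTRF after 30 min lysis at room temperature.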
# gsp ag: gsp mutant agonism; 340,000 compounds, 0.13% hits; AID 624287; gsp mutant cells, cAMP HTRF, 30 min; control for the full effect not named in the record; Potency, µM (titrated, usually from 76.9 µM), without a hit: at the top dose activation (cAMP increase), actives largely listed as activators; active = well fitted activation curve with a large enough effect; inconclusive = small, poorly fitted or top-dose-only effect, or another doubt; inactive = no such curve, though single readings can be large or run the other way; cell line not stated here;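 further: phosphodiesterase inhibitor Ro 20-1724 added with compounds to block cAMP breakdown; potency means the concentration at half of the fitted maximal effect; nearly all actives have a fitted effect of over 60% in size; about a fifth of the inactives were tested at one dose only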
#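 Cells stably selected in G418 were plated at 2000/well, grown 16-24 hr, then given compounds in DMSO with the PDE inhibitor […] (300 uM solution added) for 30 min at 37C; cAMP was read by HTRF.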
# TRPML1 ag: human mucolipin-1 channel agonism | Q9GZU1 | TRPML1-expressing cells, Ca2+ dye fluorescence, FDSS; host cell line not named in the record; reference of the full effect not given here | activation, % (no concentration beside the values) | 410,000 compounds, 0.12% hits | AID 624414; in the data active = activation above about 50%; inconclusive = about 30% to 50%; inactive = below about 30%; further: 0% is about no effect; the text of the record puts the active cut at 80%
#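 Calcium fluorescence on an FDSS kinetic reader gave the read-out. Tet-induced TRPML1-DL cells were plated overnight, dye-loaded (Ca8 with quencher, 45-90 min, room temperature, dark), then read 110 s after compound addition, and again 110 s after 4uM final 54-4 (EC80).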
# Menin MLL FP FL: displaces fluorescein MLL peptide from human menin; Fluorescence polarization, fluorescein-MLL peptide displacement from menin; FP activity change, % at 61.4 µM; 290,000 tested, under 10 active; inconclusive = falling polarisation curve, or a change in total fluorescence; inactive = total fluorescence flat and polarisation flat or rising; no compound was filed as active; the % refers to the polarisation; negative = inhibition;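 further: % of control where 0% means no effect; inhibitors lower the polarisation; unlabelled MLL peptide was the positive control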
# An asterisk follows results filed as active; ? = inconclusive; / = not tested or not shown; & = joins results of further samples; [ ] = dose if it differs, or a comment.
SMILES,ClpP mod,TRPML1 inh,gsp antag,gsp ag,TRPML1 ag,Menin MLL FP FL
O=C(C(=O)N1CCc2ccccc2C1)c1cn(CC(=O)N2CCOCC2)c2ccccc12,-0.3%,-10.8,-3.1%,?,-0.1,-1.2
CCOC(=O)c1cccc(NC(=O)C2CCN(S(=O)(=O)c3ccc4c(c3)oc(=O)n4C)CC2)c1,-2.0%,-22.0,/,/,0.1,/
COc1ccccc1/C=C/C(=O)c1ccc(Cl)cc1,-3.6%,-10.2,-6.9%,6.7%,0.1,-0.2
O=C(NCCCN1CCOCC1)c1ccc(N2CCCC2)c([N+](=O)[O-])c1,/,-17.1,-9.8%,?,0.5,1.1
O=C(NC1=NCCS1)c1ccc(Br)s1,-0.3%,-17.0,-3.6%,32.1%,0.1,-0.9
Cc1ccsc1CN(C(=O)c1ccc(Br)cc1)C1CCS(=O)(=O)C1 (stereo not drawn),0.1%,-13.0,/,/,-0.3,/
Cc1cc(NC(=O)c2cccc(Cl)c2)ccc1-c1cc2ccccc2oc1=O,?,6.7,/,/,-0.2,/
N#Cc1c(-c2ccco2)cc(C2CC2)nc1N,47.8%,16.8,12.8%,22.4%,1.7,?
COc1ccc(C(C)=O)cc1COC(=O)C1CCN(C(=O)c2ccc(Cl)cc2)CC1,0.3%,-19.6,?,3.4%,4.1,/
Nc1cc(-c2ccccc2)ccc1O,31.6µM*,-3.1,-3.3%,-31.1%[inhibitor],-0.7,5.7&3.0
O=[N+]([O-])c1cc(-c2nnc(N3CCOCC3)c3ccccc23)ccc1N1CCOCC1,0.0%,-14.6,-6.0%,-21.4%,0.6,-1.9
Nc1ncnc2c1ncn2[C@@H]1O[C@H](CNC(=O)[C@@H](N)COCc2ccccc2)[C@@H](O)[C@H]1O,-0.4%,1.5,9.8%,/,-0.7,/
CC(OC(=O)C1CCN(S(=O)(=O)c2ccc(C(C)(C)C)cc2)CC1)C(=O)N1CCOCC1 (stereo not drawn),1.4%,-10.7,6.0%,-60.5%[inhibitor],-0.9,/
S=c1[nH]nc(-c2ccc(Br)cc2)n1Cc1ccccc1,/,-11.1,-0.4%,-11.6%[15.4 µM],0.7,-7.9
Cc1ccccc1S(=O)(=O)N(C)C[C@@H]1OCc2cnnn2CCCC(=O)N([C@H](C)CO)C[C@@H]1C,-1.9%,11.5,/,-86.5%[inhibitor],-0.5,/
CN(CCO)S(=O)(=O)c1ccc2c(c1)C(=NO)c1cc(S(=O)(=O)N(C)CCO)ccc1-2,/,17.1,-7.3%,25.4%,0.6,-0.9
O=C(O)C1C2CCC(C2)C1C(=O)N1CCCC1 (stereo not drawn),/,-6.5,14.9%,-23.9%,-0.3,-4.9
COc1ccccc1NC(=O)c1cccc(S(=O)(=O)N2CCN(c3ccccc3)CC2)c1,-7.0%,-15.4,-6.5%,-3.2%,0.6,/
Cc1ccc(-n2ncc3c(NCc4ccco4)ncnc32)cc1C,/,13.8,9.0%,0.4%[15.4 µM],-0.7,0.0
COc1ccc(CCC(=O)Nc2ccc(N3CCOCC3)cc2)cc1,-0.6%,7.1,10.3%,6.7%,0.6,3.5
N#CCNc1ccc([N+](=O)[O-])cc1C#N,-2.1%,8.5,1.9%,-2.6%,-0.8,-0.2
Cc1ccc(NC(=S)N2CCC(NC(=O)C3CCCCC3)CC2)cc1C,/,-24.2,8.8%,-42.0%,-0.4,-2.1
Brc1cccc(OCCCCn2cncn2)c1,-2.0%,-2.1,-11.7%,-26.0%,-0.7,-1.2
CCNC(=O)Cc1ccc(NS(=O)(=O)c2ccc(F)cc2)cc1,0.4%,-6.4,1.1%,11.6%,0.0,4.7
COc1cccc(C(=O)OCC(=O)Nc2sc3c(c2C(N)=O)CCC3)c1O,2.6%,-1.0,2.8%,?,0.1,/
COc1ccc(CNC(=O)N2CCc3nc(Nc4cc(OC)c(OC)c(OC)c4)ncc3C2)cc1,-3.2%,7.8,/,/,-0.7,/
COc1ccc(C(=O)Oc2c(Sc3ccc(C)cc3)c(C)nn2C(C)(C)C)c(OC)c1,-5.7%,3.8,/,/,-0.1,/
O=C(Cn1cc(C(F)(F)F)ccc1=O)Nc1ccc2c(c1)OCO2,-0.3%,-1.3,/,17.9%,0.1,/
CCOC(=O)c1c(NC(=O)c2ccc(S(=O)(=O)N3CCC(C)CC3)cc2)sc2c1CCN(C)C2,78.6%,-12.7,/,/,?,/
CC(C)C(NC(=O)c1ccccc1F)C(=O)Nc1ccc2c(c1)OCO2 (stereo not drawn),-0.6%,0.9,1.2%,-2.9%,0.6,-0.6
COCCC(=O)N1CCC(Oc2ccc(C(=O)NCc3cc(C)n(C)n3)cc2)CC1,-1.2%,-16.6,3.8%,-8.9%,-0.6,-4.3
CCC[C@H]1CN(c2ccc(Br)cc2)C(=O)[C@@H]1CC(=O)Nc1ccccc1,0.5%,18.9,/,-24.7%,-0.6,/
CCOc1ccc(C(=O)NCCCn2ccnc2)cc1,1.7%,-0.3,-3.2%,-7.9%,-0.5,-1.5
CC(C)[C@H](NC(=O)Cc1ccccc1)C(=O)OCc1cc(=O)n2c(n1)sc1ccccc12,1.7%,12.7,-6.9%,-51.5%,6.0,4.9
CCOC(=O)N1CCN(S(=O)(=O)c2ccc(C)c([N+](=O)[O-])c2)CC1,/,-0.8,2.1%,-5.6%[15.4 µM],-0.4,-2.0
CCc1nc2ccccc2n1CC1CC1(Cl)Cl (stereo not drawn),1.3%,-1.0,14.1%,-6.9%[15.4 µM],0.0,-2.6
CCN(CC(=O)N1CCCC1)S(=O)(=O)c1cc(C)ccc1OC,-1.7%,-1.1,5.4%,-6.7%[15.4 µM],-0.8,0.4
Cc1ccc(CNC(=O)C(=O)NCC2OCCN2S(=O)(=O)c2ccc(C)cc2)cc1 (stereo not drawn),-3.7%,4.6,2.8%,4.5%,2.9,/
Cc1ccccc1-c1cc(C(=O)O)nn1CC1CC(c2cccc([N+](=O)[O-])c2)=NO1 (stereo not drawn),-0.2%,2.4,0.3%,/,-0.5,/
Cn1c(=O)c2c(nc(SCCN3CCCCC3)n2Cc2ccccc2)n(C)c1=O,0.6%,-17.3,3.0%,7.2%,-0.1,-1.7
O=C(/C=C/c1ccccc1)N(Cc1cccc(Cl)c1)C1CCS(=O)(=O)C1 (stereo not drawn),/,2.9,-17.1%,-25.8%[15.4 µM],1.4,-2.5
C=CCN(C(=O)c1csnn1)C(C(=O)NC1CCCCC1)c1ccc(F)cc1 (stereo not drawn),/,8.4,/,5.7%[15.4 µM],-0.3,-4.0
COCCNC(=O)c1ccc2c(c1)N(Cc1cc(C)ccc1C)C(=O)c1ccccc1S2=O (stereo not drawn),-0.5%,-6.8,/,/,0.2,/
COc1ccc(C(C)=O)cc1CSc1nnc(Nc2ccccc2C)s1,1.4%,54.3,11.2µM*,-46.3%[inhibitor],2.3,-0.1
CN(C)/C=C(\C#N)C(=O)Nc1ccc(F)c(Cl)c1,-0.4%,-0.3,0.3%,-19.1%,-0.1,1.4
Cc1cc(C)c2c(n1)SCC(=O)N2CC(=O)Nc1ccccc1C,0.0%,5.7,/,/,-0.3,/
CC(C)CNC(=O)COC(=O)c1n[nH]c2ccccc12,1.5%,-23.6,9.3%,8.4%[15.4 µM],-0.7,-8.4
Cc1ccc(NC(=O)CCCCCN2C(=O)[C@@H]3Cc4ccccc4CN3C2=O)cc1,0.1%,-23.7,-12.2%,6.7%,1.9,/
CCOc1cc(/C=N/NC(N)=S)cc(Br)c1OCc1ccccc1C,-0.3%,35.5,0.1%,-6.5%,1.4,2.8
C1CN(CC2CCN(c3nc4nonc4nc3N3CCSCC3)CC2)CCO1,/,12.4,/,8.0%[15.4 µM],0.7,0.5
# Other records follow.
SMILES,ClpP mod,TRPML1 inh,gsp antag,gsp ag,TRPML1 ag,Menin MLL FP FL
CC(Nc1ccc2c(c1)OCCO2)C(=O)Nc1ccc2c(c1)OCO2 (stereo not drawn),/,5.6,-3.1%,-1.7%[15.4 µM],-1.4,-1.8
COc1ccc(OC)c(NC(=O)C2CC(=O)N(c3ccc(Br)cc3)C2)c1 (stereo not drawn),-1.2%,12.2,1.0%,?,0.0,8.1
O=S(=O)(c1ccc(OCC(O)CN2CCc3ccccc3C2)cc1)N1CCOCC1 (stereo not drawn),-1.7%,-11.6,3.0%,22.4%,-0.3,0.7
O=c1c(/C=C(\O)c2ccc(F)cc2)nc2ccccc2n1-c1ccccc1,1.0%,-2.5,4.6%,-2.1%,10.0,?
COc1ccc(-c2csc(/C=C/c3ccc4c(c3)OCO4)n2)cc1OC,35.3%,-1.7,8.4%,-1.4%,3.3,1.7
Cc1ccc(-n2c(=O)c3cccnc3n2CC(=O)Nc2ccccc2C(F)(F)F)cc1C,4.1%,-19.1,/,/,0.4,/
CSc1ncccc1C(=O)NCCc1ccccc1,/,-6.3,12.4%,22.6%,-0.6,-2.3
CN(C)Cc1ccccc1CNC(=O)c1ccc(Cl)c(S(=O)(=O)NC2CC2)c1,1.6%,34.3,/,16.7%,-0.9,/
C/C(=N\NC(=O)c1ccc(-n2cnnn2)cc1)c1ccc(C)cc1,-0.7%,9.9,1.4%,-60.6%,1.1,/
CCOC(=O)c1c(C)[nH]c(C)c1C(=O)COC(=O)c1cccnc1OCC,1.0%,-2.0,-4.8%,-38.9%[inhibitor],0.2,/
O=C(CC1Nc2ccccc2NC1=O)Nc1ccccc1 (stereo not drawn),-1.8%,9.1,-5.7%,6.9%[15.4 µM],0.7,?
Cc1cnc(C(=O)OCC(=O)NC23CC4CC(CC(C4)C2)C3)cn1,-1.9%,5.4,2.1%,0.6%,-0.4,-0.8
Cc1ccc(C(=O)Nc2ccc(Cl)cc2C(F)(F)F)c(Cl)c1,0.7%,-9.1,6.4%,3.2%,0.3,0.5
C=CCNC(=O)N1CCC(n2nccc2NC(=O)CCc2ccccc2)CC1,-0.9%,3.7,8.1%,-12.6%,0.6,-1.9
CC(=O)c1cn(CC(=O)Nc2ccccc2Cl)c2ccccc12,-3.8%,/,-1.0%,-3.4%,/,-0.7
CCCNc1cc(C)oc(=O)c1C(=O)CC,-2.4%,29.5,11.4%,?,1.8,0.4
Cc1nc2ccc(NC(=O)Cc3ccccc3F)cc2s1,/,22.7,1.5%,8.8%[15.4 µM],0.5,7.9
C#CCOc1c(Br)cc(C2C(C(=O)OC)=C(C)NC3=C2C(=O)c2ccccc23)cc1OCC (stereo not drawn),-1.4%,37.0,/,/,-0.5,/

# A few values from the results shown.
# Cc1ccc(C(=O)Nc2ccc(Cl)cc2C(F)(F)F)c(Cl)c1 in ClpP mod = 0.7%
# CC(=O)c1cn(CC(=O)Nc2ccccc2Cl)c2ccccc12 in gsp ag = -3.4%
